rRNA inh HTS = reduced GFP signal of wild-type E. coli, primary screen, bacterial rRNA inhibitor project, GFP/RFP fluorescence, OD600, single point. 1.6% of 350,000 active. GFP signal change (wild-type ribosome), % (no concentration beside the values). E. coli WT GFP vs humanized-ribosome RFP mutants, 24 h; hits give low values; DMSO median 0, no signal -100;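 active means significant combined selectivity score with lowered wild-type GFP, culture density cut under 30%, mutant RFP and density less affected; inactive means any of these conditions unmet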; further: one replicate is shown; some compounds called inactive have numbers as strong as hits
rRNA inh HTS OD600 = also measured in rRNA inh HTS; calls as there; OD600 change, %; measured here: OD600 growth;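 optical density of the mix in the first replicate; 0 = DMSO median and -100 = no signal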
rRNA inh HTS RFP = further read-out of rRNA inh HTS, marked with its call; RFP signal change, %; measured here: RFP humanized mutant strains;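 first replicate; 0 = DMSO median and -100 = no signal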
An asterisk follows results filed as active. These rows are one share of the data, so the mix of outcomes need not match the whole.

rRNA inh HTS,smiles,rRNA inh HTS OD600,rRNA inh HTS RFP
5,COc1ccc(S(=O)(=O)N(C)C[C@@H]2Oc3ccc(NC(=O)Nc4ccc(C(F)(F)F)cc4)cc3CC(=O)N([C@@H](C)CO)C[C@@H]2C)cc1,9,-0.1
4,CCS(=O)(=O)Nc1ccc2c(c1)C(=O)N(C)C[C@H](OC)[C@@H](C)CN(C(=O)NC(C)C)[C@H](C)CO2,6,-2.5
0,COc1ccc(S(=O)(=O)N(C)C[C@@H]2Oc3ccc(NS(C)(=O)=O)cc3C(=O)N([C@H](C)CO)C[C@H]2C)cc1,7,0.8
-2,COc1ccc2c3c(n(C)c2c1)[C@@H](CO)N(C(=O)NC(C)C)CC31CCN(Cc2nccs2)CC1,4,-0.1
1,CSCC[C@H](CO)NC(=O)[C@H]1O[C@@H](n2cnc3c(N)ncnc32)[C@H](O)[C@@H]1O,5,-2.8
1,C[C@@H]1CCCCO[C@@H](CN(C)S(=O)(=O)c2cn(C)cn2)[C@@H](C)CN([C@@H](C)CO)C(=O)c2cc(NS(=O)(=O)c3ccc(F)cc3)ccc2O1,-2,-1.1
-23,O=C(C1CCC1)N1CC[C@@H]2[C@H](CO)Nc3ccc(-c4cccc(F)c4)cc3[C@@H]21,-35,3.8
0,C[C@H](CO)N1C[C@H](C)[C@H](CN(C)S(=O)(=O)c2cn(C)cn2)Oc2ccc(NC(=O)C3CC3)cc2CC1=O,3,-1.2
-6,Cc1cccc(S(=O)(=O)N2CCCCN3[C@H](CO)[C@@H](c4ccc(C#C[C@H](C)O)cc4)[C@@H]3C2)c1,-18,3.2
-44,O=C(NCC[C@H]1CC[C@@H](NC(=O)c2ccncc2)[C@H](CO)O1)Nc1ccc(Cl)cc1,-63,0.7

More structures:
rRNA inh HTS,smiles,rRNA inh HTS OD600,rRNA inh HTS RFP
-2,C[C@H](CO)N1C[C@H](C)[C@@H](CN(C)Cc2ccncc2)OCCCC[C@H](C)Oc2ccc(NC(=O)Nc3cccc4ccccc34)cc2C1=O,6,6.1
17,c1cc(-c2ccc(CN3CCOCC3)cc2)n2ccnc2c1,11,2.5
-1,CC(C)CC#Cc1ccc2c(c1)O[C@H](CN(C)C(=O)Cc1cccnc1)[C@H](C)CN([C@@H](C)CO)S2(=O)=O,-11,5.6
-12,O=C(Cc1c[nH]c2ccccc12)Nc1ccc(Nc2cccnc2)c(-c2cc(F)cc(F)c2)c1,-30,-3.7
-2,C[C@@H]1CN([C@H](C)CO)C(=O)Cc2cc(NS(=O)(=O)c3ccc(Cl)cc3)ccc2O[C@@H]1CN(C)C(=O)Nc1ccc2c(c1)OCO2,-1,2.8
-6,Nc1[nH]c(C(=O)c2ccc(Br)cc2)c(-c2ccccn2)c1C(=O)NCCc1c[nH]c2ccccc12,-14,0.4
-11,C[C@@H]1CN([C@@H](C)CO)C(=O)c2cccc(NC(=O)c3ccc(-c4nccs4)cc3)c2O[C@@H]1CN(C)C(=O)NC1CCCCC1,-7,5.2
7,CCCOc1ccc(F)cc1-c1cc(C(=O)Nc2ccc(F)cc2)[nH]n1,22,2.4
0,C[C@H]1CCCCO[C@H](CN(C)S(=O)(=O)c2cccs2)[C@@H](C)CN([C@@H](C)CO)C(=O)c2cc(NS(=O)(=O)c3ccc(Cl)cc3)ccc2O1,4,1.5
1,C[C@@H]1CCCCO[C@H](CN(C)C(=O)Cc2ccccc2)[C@@H](C)CN([C@H](C)CO)C(=O)c2cc(NS(=O)(=O)c3ccccc3)ccc2O1,6,2.0

(more compounds)
rRNA inh HTS,smiles,rRNA inh HTS OD600,rRNA inh HTS RFP
-1,CCC(=O)N(C)C[C@@H]1Oc2ncc(-c3ccccc3C)cc2C(=O)N([C@@H](C)CO)C[C@H]1C,-1,1.0
-38,CC(O)(c1cccc(F)c1)c1nc(-c2cnc3ccccc3c2)cs1 (stereo unspecified),-72,-6.2
-14,Cc1ccccc1NS(=O)(=O)c1ccc(S(=O)(=O)N2CCCC2)cc1,-17,-2.7
0,Cc1ccc(F)cc1C(=O)N1CCOCC1c1cc(C(=O)Nc2ccccc2)no1 (stereo unspecified),-17,-11
-1,CCCNC(=O)C[C@@H]1C[C@@H]2c3cc(NS(=O)(=O)c4ccc(F)cc4)ccc3O[C@@H]2[C@H](CO)O1,-15,1.3
10,O=C(C[C@H]1CC[C@@H]2[C@H](COC[C@H](O)CN2C(=O)Nc2ccc(F)cc2)O1)NCCCN1CCOCC1,23,-1.6
1,C[C@@H]1CN([C@H](C)CO)C(=O)c2cc(NC(=O)NC3CCCCC3)ccc2O[C@@H](C)CCCCO[C@H]1CN(C)C(=O)NC1CCCCC1,0,0.4
3,Cc1ccc(S(=O)(=O)N[C@@H]2C=C[C@@H](CC(=O)NCCCN(C)C)O[C@@H]2CO)cc1,9,-0.2
4,OC[C@H]1[C@@H]2c3ccccc3NC[C@@H]2N1CC1CCCCC1,8,-2.3
1,COc1cccc(NC(=O)N[C@@H]2CC[C@@H](CC(=O)N3CCOCC3)O[C@H]2CO)c1,6,0.3

More structures follow:
rRNA inh HTS,smiles,rRNA inh HTS OD600,rRNA inh HTS RFP
-9,CCc1cc(-c2nnn(CCC3COCCO3)c2CC)cc(CC)c1-c1cn(Cc2ccccc2)nn1 (stereo unspecified),-14,1.5
-9,C[C@H]1CN([C@@H](C)CO)S(=O)(=O)c2ccc(-c3ccc(F)cc3)cc2O[C@@H]1CN(C)C(=O)C1CCCCC1,-26,4.3
2,COc1ccc(CN(C)C[C@H]2Oc3ccc(NC(=O)CCCCCC(=O)Nc4ccccc4N)cc3CC(=O)N([C@@H](C)CO)C[C@@H]2C)cc1,2,-1.9
-2,CN(C)C(=O)c1ccc(-c2ccc([C@@H]3[C@H]4CN(S(C)(=O)=O)CCCCN4[C@H]3CO)cc2)cc1,5,-0.9
-2,C[C@@H]1CN([C@@H](C)CO)C(=O)c2cc(-c3cccc(F)c3)cnc2O[C@@H]1CN(C)Cc1cncnc1,0,-3.5
-5,CC(=O)N1CC2(C1)[C@@H](c1ccc(-c3ccc(C#N)cc3)cc1)[C@@H](CO)N2CCC(F)(F)F,-10,-0.6
2,C[C@H](CO)N1C[C@H](C)[C@H](CN(C)CC2CC2)Oc2ccc(NC(=O)C3CC3)cc2C1=O,6,-2.6
-4,CN(C)C(=O)c1cc2c(c(-c3cccc(-c4ccccc4)c3)n1)[C@H](CCO)N([S@@](=O)C(C)(C)C)C2,3,2.1
1,Cc1ccc(S(=O)(=O)Nc2ccc3c(c2)C(=O)N([C@@H](C)CO)C[C@@H](C)[C@H](CN(C)C(=O)Nc2cccc4ccccc24)OCCCC[C@H](C)O3)cc1,4,3.1
-1,COc1ccc(NC(=O)N(C)C[C@@H]2Oc3c(NC(=O)NC4CCCCC4)cccc3C(=O)N([C@@H](C)CO)C[C@H]2C)cc1,6,-2.7

(more compounds)
rRNA inh HTS,smiles,rRNA inh HTS OD600,rRNA inh HTS RFP
-44,O=S(=O)(c1ccc(F)cc1)N1CC[C@@H]2[C@@H](CO)Nc3ccc(Br)cc3[C@@H]21,-50,6.6
1,C[C@@H]1CN([C@@H](C)CO)C(=O)c2ccccc2-c2ccccc2CO[C@H]1CN(C)S(=O)(=O)c1cccc(C#N)c1,0,-2.0
0,CC(=O)N1[C@H](CN(C(=O)c2ccccc2)C(C)C)[C@@H](c2ccccc2)[C@@H]1CO,0,-0.3
2,COc1cccc(NC(=O)N[C@@H]2C=C[C@@H](CC(=O)NCc3ccccn3)O[C@@H]2CO)c1,3,-1.5
4,Cc1noc(C)c1S(=O)(=O)Nc1ccc2c(c1)C(=O)N([C@@H](C)CO)C[C@@H](C)[C@H](CN(C)C(=O)NC(C)C)OCCCC[C@@H](C)O2,8,-2.3
9,NC(=O)c1[nH]cnc1N=NN(CCO)Cc1ccccc1,14,-4.9
-3,C[C@@H]1CCCCO[C@@H](CN(C)C(=O)Cc2ccccc2)[C@@H](C)CN([C@@H](C)CO)C(=O)c2cc(NS(=O)(=O)c3ccc(F)cc3)ccc2O1,-4,1.6
9,O=C1OCC/C1=C\NCCCN/C=C1\CCOC1=O,15,1.0
5,N#Cc1ccc(-c2ccc3c(c2)[C@@H]2[C@@H](CCN2C(=O)C2CC2)[C@@H](CO)N3)cc1,-18,-0.4
0,C[C@H](CO)N1C[C@H](C)[C@@H](CN(C)Cc2ccncc2)Oc2ccc(NC(=O)CCC(F)(F)F)cc2C1=O,-2,-1.7

(continued)
rRNA inh HTS,smiles,rRNA inh HTS OD600,rRNA inh HTS RFP
2,CN(C)CC(=O)N1[C@H](C#N)[C@H](c2ccc(C#CC3CCCC3)cc2)[C@@H]1CO,1,-1.8
4,CCc1nc(N2[C@H](C#N)[C@@H](c3ccccc3-c3ccccc3C)[C@H]2CO)sc1C,-15,-2.2
2,Cc1ccccc1S(=O)(=O)Nc1ccc2c(c1)C(=O)N(C)[C@@H]1CC[C@@H](CC(=O)O)O[C@H]1CO2,4,-0.4
-2,CC1(Cc2ccccc2OC(F)(F)F)C(=O)Nc2c(Cl)ccc(Cl)c21 (stereo unspecified),-3,1.1
6,COc1ccc(S(=O)(=O)N2CCCCN3[C@H](CO)[C@@H](c4ccc(C#CC(C)C)cc4)[C@@H]3C2)cc1,8,1.8
5,O=C(CC1CC1)Nc1ccc2c(c1)[C@@H]1C[C@@H](CC(=O)N3CCOCC3)O[C@H](CO)[C@@H]1O2,10,-0.9
2,CO[C@@H](CN(C)S(=O)(=O)c1ccc(F)cc1)[C@@H](C)CN(C(=O)Nc1ccccc1F)[C@@H](C)CO,3,0.1
1,COc1ccc2c3c([nH]c2c1)[C@H](CO)N(Cc1cc(F)ccc1F)CC31CN(C(=O)CN(C)C)C1,-15,-0.4
4,C[C@H](CO)N1C[C@H](C)[C@@H](CN(C)C(=O)Nc2ccc(F)cc2)Oc2ccc(NC(=O)C3CC3)cc2CC1=O,4,-1.1
2,CCC(=O)N1CC(=O)N2[C@H](CO)[C@@H](c3ccc(C#CCc4ccccc4)cc3)[C@H]2C1,-6,-6.6

Further results:
rRNA inh HTS,smiles,rRNA inh HTS OD600,rRNA inh HTS RFP
1,CO[C@H]1CN(C)C(=O)c2ccc(NS(=O)(=O)c3ccccc3)cc2OC[C@@H](C)N(Cc2cccnc2)C[C@@H]1C,-9,0.8
0,O=C(C[C@@H]1C[C@H]2c3cc(NC(=O)Nc4ccccc4F)ccc3O[C@H]2[C@@H](CO)O1)NCc1cc(F)ccc1F,6,1.9
2,O=C(N[C@@H]1CC[C@H](CC(=O)N2CCN(c3ccccc3)CC2)O[C@@H]1CO)c1ccccc1,-1,-3.8
-57,O=C(C[C@@H]1CC[C@H]2[C@@H](COC[C@H](O)CN2C(=O)Nc2ccc(Cl)c(Cl)c2)O1)NCc1ccc(Cl)c(Cl)c1,-74,-15
0,C[C@@H]1CCCCO[C@H](CN(C)Cc2ccncc2)[C@@H](C)CN([C@H](C)CO)C(=O)c2cc(NC(=O)Nc3ccc(F)cc3)ccc2O1,-2,-2.8
3,Cc1ccc(S(=O)(=O)Nc2ccc3c(c2)C(=O)N([C@@H](C)CO)C[C@H](C)[C@@H](CN(C)C(=O)NC(C)C)O3)cc1,6,-1.2
-1,Cc1noc(C)c1S(=O)(=O)N(C)C[C@H]1OCCCC[C@H](C)Oc2ccc(NC(=O)Nc3cccc4ccccc34)cc2C(=O)N([C@H](C)CO)C[C@H]1C,2,-1.0
1,COCC(=O)N1CC2(CN(C(=O)c3ccccn3)C2)c2c(n(C)c3cc(OC)ccc23)[C@H]1CO,8,-2.8
2,CS(=O)(=O)Nc1ccc2c(c1)[C@@H]1C[C@@H](CC(=O)NCC(F)(F)F)O[C@H](CO)[C@@H]1O2,2,1.0
5,O=C(c1cccnc1)N1CC(=O)N2[C@@H](CO)[C@@H](c3ccc(-c4ccc(F)cc4)cc3)[C@@H]2C1,4,1.6

Not a retest: an excerpt of the list.
rRNA inh HTS,smiles,rRNA inh HTS OD600,rRNA inh HTS RFP
9,O=C1OCC/C1=C\NCCCN/C=C1\CCOC1=O,15,1.0
5,N#Cc1ccc(-c2ccc3c(c2)[C@@H]2[C@@H](CCN2C(=O)C2CC2)[C@@H](CO)N3)cc1,-18,-0.4
0,C[C@H](CO)N1C[C@H](C)[C@@H](CN(C)Cc2ccncc2)Oc2ccc(NC(=O)CCC(F)(F)F)cc2C1=O,-2,-1.7
2,CN(C)CC(=O)N1[C@H](C#N)[C@H](c2ccc(C#CC3CCCC3)cc2)[C@@H]1CO,1,-1.8
4,CCc1nc(N2[C@H](C#N)[C@@H](c3ccccc3-c3ccccc3C)[C@H]2CO)sc1C,-15,-2.2
2,Cc1ccccc1S(=O)(=O)Nc1ccc2c(c1)C(=O)N(C)[C@@H]1CC[C@@H](CC(=O)O)O[C@H]1CO2,4,-0.4
-2,CC1(Cc2ccccc2OC(F)(F)F)C(=O)Nc2c(Cl)ccc(Cl)c21 (stereo unspecified),-3,1.1
6,COc1ccc(S(=O)(=O)N2CCCCN3[C@H](CO)[C@@H](c4ccc(C#CC(C)C)cc4)[C@@H]3C2)cc1,8,1.8
5,O=C(CC1CC1)Nc1ccc2c(c1)[C@@H]1C[C@@H](CC(=O)N3CCOCC3)O[C@H](CO)[C@@H]1O2,10,-0.9

Next section.
rRNA inh HTS,smiles,rRNA inh HTS OD600,rRNA inh HTS RFP
-3,CO[C@@H](CN(C)C(=O)c1ccccc1F)[C@H](C)CN([C@H](C)CO)S(=O)(=O)c1ccccc1,5,-3.5
0,COc1cccc(S(=O)(=O)N2C[C@H](O)COC[C@@H]3O[C@@H](CC(=O)Nc4ccccc4)CC[C@H]32)c1,7,-1.1
5,CNC[C@@H]1Oc2cc(C#Cc3ccc(OC)cc3)ccc2S(=O)(=O)N([C@H](C)CO)C[C@H]1C,5,4.2
-2,C/C=C/c1ccc2c(c1)O[C@@H](CN(C)C(=O)COC)[C@H](C)CN([C@H](C)CO)S2(=O)=O,5,-3.1
3,CCCC#Cc1cnc2c(c1)C(=O)N([C@H](C)CO)C[C@@H](C)[C@@H](CN(C)C(=O)NCCC)O2,0,-2.9

Assay outcomes as filed in PubChem.
